Calb FLC: affects C. albicans growth with fluconazole. AID 1979. C. albicans CaCi-2 (fluconazole-resistant clinical isolate) + fluconazole, Alamar Blue growth, 48 h. actives 0.57% (n = 300,000). growth inhibition, % (no concentration beside the values);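 active means most replicates above 75%; inconclusive means exactly half above 75%; inactive means most below 75%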;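 further: all wells also contain fluconazole at 8 µg/ml as a sub-toxic cotreatment; 0% = median of DMSO wells and 100% = median of geldanamycin control wells; wells of about 8 µL received 7.5 nL stock; the first replicate is given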
Ecoli rRNA inh: inhibitors of bacterial rRNA selective over humanized ribosomes; GFP signal change (wild-type ribosome), % (concentration not given with the values); AID 720706; E. coli WT GFP vs humanized-ribosome RFP mutants, fluorescence, 24 h; hits give low values; DMSO median 0, no signal -100; actives 1.6% (n = 350,000);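 active means significant combined selectivity score with lowered wild-type GFP, culture density cut under 30%, mutant RFP and density less affected; inactive means any of these conditions unmet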; further: one replicate is shown; some compounds called inactive have numbers as strong as hits
ALR inh: blocks human ALR sulfhydryl oxidase activity | inhibition, % (no concentration beside the values) | purified ALR, DTT oxidation, H2O2 HRP-luminol luminescence | P55789 | AID 485317 | actives 3.8% (n = 290,000);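 active means mean and each replicate at 75% or more; inconclusive means only one of the two met; inactive means neither met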;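 further: stock transfer was 7.5 nL into about 7.5 µL; 0% = neutral wells and 100% = wells with inactivated enzyme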
Target sequence (P55789 whole entry, looked up): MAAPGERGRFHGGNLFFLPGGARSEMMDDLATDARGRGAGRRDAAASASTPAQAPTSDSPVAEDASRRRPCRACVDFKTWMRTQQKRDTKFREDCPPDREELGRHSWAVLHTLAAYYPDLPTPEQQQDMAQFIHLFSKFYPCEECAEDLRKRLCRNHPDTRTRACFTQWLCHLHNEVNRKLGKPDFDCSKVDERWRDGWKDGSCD
B2AR ag: agonists of human beta-2 adrenergic receptor inducing internalization | Am2.2-beta2AR cells, FAP receptor internalization, flow cytometry; reference of the scale not given here | response, % (concentration not given with the values) | actives 0.43% (n = 340,000) | AID 504454;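 active means response above a set limit, near 3 SD of response in nonfluorescent compounds, cut at about 42% in these data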;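 further: stock transfer was 100 nL into about 11 µL; a reference agonist was the positive control; negative values mostly stem from fluorescent compounds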
Target sequence (P07550 whole entry, looked up): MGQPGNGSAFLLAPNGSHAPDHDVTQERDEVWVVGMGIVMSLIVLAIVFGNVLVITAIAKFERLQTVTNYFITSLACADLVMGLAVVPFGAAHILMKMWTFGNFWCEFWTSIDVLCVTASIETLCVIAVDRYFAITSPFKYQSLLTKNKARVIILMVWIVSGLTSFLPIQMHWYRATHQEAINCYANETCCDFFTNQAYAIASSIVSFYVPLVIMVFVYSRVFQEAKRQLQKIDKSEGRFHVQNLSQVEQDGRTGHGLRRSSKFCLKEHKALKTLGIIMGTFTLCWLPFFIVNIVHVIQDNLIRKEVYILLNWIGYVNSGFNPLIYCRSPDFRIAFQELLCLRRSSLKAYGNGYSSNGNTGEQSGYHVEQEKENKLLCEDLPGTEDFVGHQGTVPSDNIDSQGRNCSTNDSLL
T cruzi inh: T. cruzi replication inhibition. actives 1.4% (n = 300,000). inhibition, % (test concentration not listed). AID 1885. T. cruzi beta-gal in NIH3T3, luminescence, 90 h;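 active means mean inhibition across valid replicates above about 55%, limit read from the data; inconclusive means mean below that limit but half or more replicates reach it; inactive means mean below it, under half of replicates reach it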;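 further: signal also drops with host cell toxicity which is not excluded here; 0% = plate median of DMSO wells and 100% = zero luminescence signal; higher percent means less beta-gal luminescence so fewer parasites; stock transfer was 50 nL into about 50 µL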
LANA-H2A inh: blocks KSHV LANA binding to histone H2A/H2B; Q9QR71; cell-free LANA-H2A/H2B peptide, fluorescence polarization; inhibition, % (test concentration not listed); actives 0.6% (n = 320,000); in the data active means inhibition mostly above about 10%, no sharp cut-off; inactive means mostly below about 6.7%;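 further: stock transfer was 7.5 nL into about 10 µL; 0% = median of vehicle wells and 100% = median of positive control wells; one replicate is shown; the record names a cut of 25% in any replicate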
Bfl-1 A1 inh: inhibitors of the anti-apoptotic protein A1, read as caspase activation | caspase activation, % (test concentration not listed) | actives 0.066% (n = 330,000) | MEF A1-2A-BIM cells, Caspase-Glo 3/7 luminescence, 3 h; percent of clofoctol response, vehicle zero | AID 2462;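 active means over half of replicate activation scores above 10%, or exactly half above 10 with the replicate mean above 10; inconclusive means replicate mean below 10 yet half the replicates above 10; inactive means over half of replicates below 10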;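 further: wells of about 30 µL received 50 nL stock; many hits fall short of the cut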
Beta apoptosis: beta cell apoptosis inhibition; AID 435005; protection from apoptosis, % (no concentration beside the values); actives 0.8% (n = 300,000); INS-1E cytokine-induced death, ATP luminescence, 48 h; percent of positive-control rescue, neutral wells zero;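 active means all replicates at 75% or more, or half of them and the mean; inconclusive means half reach 75% but not the mean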;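 further: 0% = cytokine-treated negative control wells and 100% = positive control rescue; higher means more ATP so stronger rescue from cytokine killing; wells of about 40 µL received 100 nL stock; the first replicate is given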
Ecoli rRNA inh OD600: also measured in Ecoli rRNA inh; calls as there; OD600 change, %; measured here: OD600 growth;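 optical density of the mix in the first replicate; 0 = DMSO median and -100 = no signal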
Ecoli rRNA inh RFP: further read-out of Ecoli rRNA inh, marked with its call; RFP signal change, %; measured here: RFP humanized mutant strains;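 first replicate; 0 = DMSO median and -100 = no signal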
* hit, by the source's call; ? = inconclusive; . = not tested or not shown.

Every second line gives: Calb FLC, Ecoli rRNA inh, Ecoli rRNA inh OD600, Ecoli rRNA inh RFP, ALR inh, B2AR ag, T cruzi inh, LANA-H2A inh, Bfl-1 A1 inh, Beta apoptosis
C=CCN(CC=C)C(=S)NC(=O)c1ccc(-c2ccccc2)cc1
  -11, ., ., ., 0, -2, 55*, -2.5, 1.2, 11
O=S(=O)(NC1CCCCC1)c1ccc(Br)cc1
  -35, ., ., ., 2, 7, 2, -3.5, 0.9, -4
CCCn1c(C(C)Nc2nc(-c3ccc(C)cc3)cs2)nc2cc(Cl)c(N3CCCCC3)cc21 (stereo not drawn)
  -7, 8, 6, -2.3, -5, 6, 40, -2.0, 0.8, -8
Cc1ccc(CC(=O)Nc2ncc([N+](=O)[O-])s2)cc1
  82*, -54, -79, -15, ., 3, 69*, 3.1, -7.5, 20
C/C(CC(=O)Nc1cc(C)ccn1)=N\NC(=O)c1ccccc1C
  3, 15, 10, -0.6, -19, 5, -15, -0.9, -0.6, -24
Cc1ccc(NC2CCCN(C(=O)c3ccoc3C)C2)cc1C (stereo not drawn)
  -8, -2, 2, -0.7, 98*, 8, 6, 1.3, 0.9, 0
O=C(Nc1ccccc1N1CCOCC1)c1ccc(S(=O)(=O)NCc2ccco2)cc1
  108*, 4, 2, 0.7, 34, -6, ., -5.9, -0.2, 1
Cc1nc2nc[nH]n2c(=O)c1NS(=O)(=O)c1ccc([N+](=O)[O-])cc1
  0, 15, 18, -0.7, -4, 3, 0, 0.5, 0.4, -7
CC1CN(C(=O)COC(=O)c2ccc(N(C)C)cc2)CC(C)O1 (stereo not drawn)
  -5, 17, 17, -0.2, 7, 0, -6, -1.0, 0.4, 0
CCC(C)c1ccc(S(=O)(=O)N2CCN(C(C)CC(=O)O)CC2)cc1 (stereo not drawn)
  1, 3, 0, 1.0, 2, 2, -4, 2.0, 0.9, 2
CCC(C)(C)NC(=O)C1CC(=O)N(CCc2ccc(F)cc2)C1 (stereo not drawn)
  0, 5, 13, -1.9, -2, -4, 1, 5.0, 0.8, -4
Cc1ccc(C)c(N(C(=O)CNC(=O)c2ccco2)C(C(=O)NC2CCCCC2)c2ccncc2)c1 (stereo not drawn)
  3, -2, 1, -0.6, 11, -9, -7, 0.9, 0.4, -12
CCOC(=O)c1c(CN(C)C)n(-c2ccc(C)cc2)c2cc(Br)c(O)cc12
  29, ., ., ., 8, -6, 25, -3.0, 0.2, 4
O=C1c2cccnc2C(=O)N1Cc1ccc(S(=O)(=O)N2CCOc3ccc(Cl)cc32)cc1
  -1, ., ., ., -1, 23, -9, 5.2, 0.1, 0
Cc1nc2ccccc2nc(C)c1=NOCc1ccc(C#N)cc1
  1, ., ., ., 3, -2, 3, -0.9, -0.3, .
COc1cc(/C=N/n2nnnc2N)ccc1OCC#N
  -7, 1, 5, 2.0, -2, 1, -5, 4.4, 0.5, .
CNC(=O)c1cccnc1Nc1cccc(C(F)(F)F)c1
  24, -6, -8, -2.2, -2, -10, 15, -1.2, 0.7, -3
O=C(Cc1cccs1)Nc1nc2c(s1)CCCC2
  -22, ., ., ., 37, -10, -6, 5.6, -0.1, 1
COc1ccc(C)cc1S(=O)(=O)N(CC(=O)O)c1ccccc1
  -13, 1, 8, -3.2, -7, -2, -8, -2.3, -1.0, -4
CC12CCC(C(=O)NCCc3ccccc3)(OC1=O)C2(C)C (stereo not drawn)
  -2, -1, -1, -1.6, 11, 0, -23, 0.5, -0.1, -14
Cc1ccc(NC(=S)NCc2ccc3c(c2)OCO3)c(C)c1
  -5, ., ., ., 0, -7, -11, -2.3, 0.7, -2
COc1ccc(N(CC(=O)NC2CCCCC2)C(=O)CNC(=O)c2ccco2)c(OC)c1
  13, ., ., ., -4, -9, -2, -8.2, -0.3, -3
COC(=O)c1sccc1NC(=O)CSc1ccccc1NS(=O)(=O)c1ccc(Br)cc1
  32, ., ., ., ., 9, 5, -1.3, -0.3, 13
N#CCCN(C(=O)COC(=O)C1=COCCO1)c1ccc(F)cc1
  -4, 1, 1, 2.8, 1, 0, -9, 9.4, 0.7, .
COc1cccc(C(=O)NCc2ccco2)c1OC
  -2, 9, 9, 0.4, -2, 14, 1, -1.9, 0.2, -5
CC(=O)Nc1ccc(NC(=O)Oc2ccccc2)cc1
  -2, 3, -1, -1.9, ., 8, -2, -1.0, -1.1, 2
OC(CN1CCN(c2cccc(Cl)c2)CC1)C(c1ccccc1)c1ccccc1 (stereo not drawn)
  ., ., ., ., ., 6, ., -1.1, 0.8, 3
O=C(CN1C(=O)c2cccnc2Oc2ccc(Cl)cc21)NCCCc1ccccc1
  1, -4, -9, -2.9, -12, 12, 0, -0.9, -0.4, 3
Cn1c(=O)c2c(ncn2CC(=O)Nc2ccc3c(c2)OCO3)n(C)c1=O
  -3, 6, 7, -1.4, -22, 6, -6, -0.7, 0.2, -4
COc1ccccc1CN1CCCC(CNC(=O)c2cccc3ccccc23)C1 (stereo not drawn)
  -7, 7, 8, 3.6, ., 14, 61*, 2.0, 1.3, -2
CCn1c(SCC(=O)NCc2ccc(C)cc2)nnc1-c1ccncc1
  -6, ., ., ., -3, -3, 12, -6.5, 0.0, -4
OCc1nn2c(c1Br)NC(c1ccccc1)CC2C(F)(F)F (stereo not drawn)
  -6, ., ., ., ., -2, -3, 0.6, -0.5, .
CCCC1/C(=N/O)CC(c2ccccc2)NC1c1ccccc1 (stereo not drawn)
  9, 9, 15, -1.8, 8, 15, -1, 9.5, -0.1, .
CCN1CCc2c(C#N)c(NCc3ccccc3)nc(N(CC)CC)c2C1
  -16, ., ., ., ., 2, 82*, 1.8, 1.6, -3
CCOc1ccc2nc(SCC(=O)N3CCCc4ccccc43)sc2c1
  -2, ., ., ., -2, 11, 29, -0.4, 0.2, -5
CC1CCC(C(=O)NC(C(=O)N2CCC(N3CCCCC3)CC2)C(C)C)CC1 (stereo not drawn)
  -3, ., ., ., -3, -5, ?, 11, -2.3, -5
CC1CCCCN1CCNc1nc(=S)[nH]c2ccccc12 (stereo not drawn)
  7, ., ., ., 36, -11, -9, -0.9, 0.0, -10
Cc1cc(NCCc2ccc(Cl)cc2)n2ncnc2n1
  6, 2, -3, -2.3, -6, 3, -2, -3.9, -1.0, 6
CCCc1ccc(-c2ccc(F)c(N)c2)nc1
  -27, ., ., ., 38, 0, -12, 5.3, -8.4, 6
CC(C)(C)OC(=O)N1CCC(C(=O)N[C@H](Cc2ccccc2)C(=O)O)CC1
  -3, ., ., ., -4, 9, -3, 0.6, -0.1, 2
COc1ccccc1CNS(=O)(=O)c1ccc2[nH]cc(C(=O)O)c(=O)c2c1
  0, ., ., ., ., 3, -14, -1.9, 0.8, .
CCO[C@H]1c2c(ccc3ccc(=O)oc23)OC(C)(C)[C@@H]1O
  ., 1, -1, -1.3, 0, -12, ., 9.3, -0.6, 6
COC(=O)C(NC(=O)Nc1ccccc1OC)C(C)C (stereo not drawn)
  -2, ., ., ., 3, 13, -3, 1.6, 2.0, -4
Oc1c(C=Nc2cccnc2)sc2ccccc12
  6, ., ., ., 45, 0, -20, -11, -2.8, -2
CC(O)[C@H](NC(=O)C1(c2ccccc2)CCN(C(=O)OC(C)(C)C)CC1)C(=O)O (stereo partly drawn)
  -11, ., ., ., -14, -3, -1, -0.1, ?, -2
COc1ccccc1/C=N/NC(=O)c1[nH]c(C)c(C(=O)N/N=C/c2ccccc2OC)c1C
  0, ., ., ., 0, 5, -11, 1.4, 0.1, 1
CC(C)N1C(=S)SC(C)(C)C1n1oc(=O)n(-c2ccc(Cl)c(Cl)c2)c1=O (stereo not drawn)
  -2, ., ., ., -6, 7, 11, 3.1, 0.3, .
COCCCNC(=O)c1cc(Nc2ccc(OC)cc2OC)nc2ccccc12
  5, -2, 0, 0.5, 14, 0, -6, -0.6, 0.0, -4
O=C(CSc1ncn[nH]1)Nc1ccc(Br)cc1Br
  ., ., ., ., -6, 6, ., 0.0, -1.6, -1
CN(C)CCN(C(=O)C1CCCCC1)c1nc2cc3c(cc2s1)OCO3
  -10, -10, -8, -1.1, -4, -1, 29, -1.3, -0.3, -1
Cc1cc(=O)oc(C)c1C(=O)NCc1ccco1
  -4, ., ., ., -2, 0, 6, 1.2, 0.4, .
CCOc1ccc2nc(NCCNC(=O)CC)c(C#N)cc2c1
  2, ., ., ., ., -1, -12, 4.8, 0.5, 2
CCN(Cc1cc(=O)oc2cc(C)ccc12)c1ccccc1
  7, -2, 6, 3.2, 9, -1, 30, 0.8, 0.5, .
O=C(CN1c2ccccc2Sc2ccccc21)NNC(=O)Nc1ccc(Cl)cc1
  -1, ., ., ., -7, -5, 9, 1.0, 0.8, .
O=C(CN1C(=O)C2C3CC(C(Br)C3Br)C2C1=O)N1CCN(Cc2ccccc2)CC1 (stereo not drawn)
  -10, 18, 1, -0.1, ., -3, -2, -7.1, 0.0, 2
CCOC(=O)C1(C)C=C(Nc2ccc(NC(C)=O)cc2)C(=O)N1c1ccc(NC(C)=O)cc1 (stereo not drawn)
  2, 15, 1, 1.4, -7, 4, 4, 1.7, -0.3, -3
O=C(CC(c1ccccc1)c1cc(Br)ccc1O)N1CCCCC1 (stereo not drawn)
  -1, -15, -10, 6.8, ., 3, 3, ., ., .
O/N=C1\CCCc2ccccc21
  31, 12, 5, 1.6, 0, -2, -3, 1.9, -0.8, -8
Cc1ccc(S(=O)(=O)Cn2nnnc2C(C(C)C)N2CCN(c3nc4ccccc4s3)CC2)cc1 (stereo not drawn)
  2, ., ., ., 1, 3, 56*, -2.0, 1.4, 9
Cc1c(C(=O)N(C)CCn2ccnc2C)oc2c(F)cccc12
  -3, 17, 15, 3.4, ., -7, -10, -4.9, 0.3, .

Source: PubChem BioAssay

This is a subset, so the mix of outcomes need not match the whole.
